# Compound activity deposited in PubChem BioAssay by National Center for Advancing Translational Sciences (NCATS).
# Methyltransferases = Primary Screen for Target Class Profiling of Small Molecule Inhibitors of Methyltransferases; calls only at 40 µM; purified enzyme, MTase-Glo SAH luminescence; hits give low values; 3.9% of 25,000 active; AID 1745853, 2022; active = -50% or lower on at least one of six enzymes; inconclusive = the cases between; inactive = as a rule above -30% on all six;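 further: enzymes were COMT GAMT GNMT HNMT NNMT and PNMT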
#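 Each enzyme was reacted with SAM and its substrate, with compounds tested once at 40 uM; SAH formed was read by MTase-Glo luminescence.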
# Calls only; i = inactive; ? = inconclusive; + = active, no number. On the % scale 0 is the no-effect control and ±100 the full control effect.
SMILES,Methyltransferases
O=c1[nH]c2ccccc2n1CCN1CCN(c2cccc(C(F)(F)F)c2)CC1,i
CN(C)c1ccc(-c2nc3ncc(Cl)c(N4CCN(CC(=O)Nc5nccs5)CC4)c3[nH]2)cc1,?
CCc1ccc(NC(=O)CSc2nnc3n(Cc4ccc(C)cc4)c(=O)c4ccccc4n23)cc1,i
CC1(C(=O)NCc2ccc(Cl)cc2)Cn2c(ccc2-c2ccco2)C(=O)N1Cc1ccccc1F (centres undefined),i
COCCCN1C(=O)c2cc3occc3n2CC1(C)C(=O)NC1CCCCC1C (centres undefined),i
Cc1ccc(CNC(=O)CNC(=O)C2(C)Cn3c(nc4ccccc43)C(=O)N2C)cc1 (centres undefined),i
CC1(C(=O)NCc2ccc(F)cc2)Cn2cnc(C(=O)Nc3ccc4c(c3)OCCO4)c2C(=O)N1C1CC1 (centres undefined),i
O=C(Cn1nc2n(Cc3ccc(F)cc3)c(=O)c3ccccc3n2c1=O)NC1CCCCC1,i
CC1CCC(NC(=O)CCn2ccc3cc(S(=O)(=O)N4CCCCC4)ccc32)CC1 (centres undefined),i
Nc1nc(C2CC(N)C2)cc(N2CCCN(Cc3cccs3)CC2)n1 (centres undefined),?
CN(C)C(=O)Oc1cccc([N+](C)(C)C)c1,i
Nc1c(S(=O)(=O)c2ccccc2)c2nc3ccccc3nc2n1-c1ccc(F)cc1,i
CCOc1ccccc1CN1C[C@@H](CO)[C@H](C2CCN(C(C)=O)CC2)C1,i
O=C(NC1CCCCCC1)c1ccc(CN2C(=O)NC3(CCS(=O)(=O)CC3)C2=O)cc1,i
N#C/C(=C\c1ccc(O)c(O)c1)C(=O)Nc1ccccc1,i
CCCC1c2cccn2CCN1C(=O)Nc1ccccc1OCC (centres undefined),i
COc1ccc2nc([C@H]3CCN(Cc4cccnc4)C3)[nH]c2c1,i
C[C@@H]1O[C@@H](OC[C@H]2O[C@@H](OC(CCCCc3ccc(O)cc3)CCc3ccc(O)cc3)[C@H](O)[C@@H](O)[C@@H]2O)[C@H](O)[C@H](O)[C@H]1O (some centres undefined),i
CC[C@H]1CN(C(=O)NC(C)C)CC[C@H]1CC(=O)N1CCC(C(=O)OC)CC1,i
Cc1ccc(Cn2c(=O)c3ccccc3n3c(=O)n(CC(=O)Nc4cc(C)cc(C)c4)nc23)cc1,i
CC1CCCC2OC2C(=O)c2c(O)cc(O)cc2CC(=O)O1 (centres undefined),i
O=C(Nc1ccccc1)O[C@@H]1CO[C@H]2[C@@H]1OC[C@@H]2NC(=S)Nc1ccc(F)cc1,i
COc1cc(N2CCC(N3CCN(C)CC3)CC2)ccc1Nc1ncc(Cl)c(Nc2ccccc2P(C)(C)=O)n1,?
CC1(C(=O)NC2CCCCCC2)Cn2c(ccc2-c2ccccc2)C(=O)N1CCC1=CCCCC1 (centres undefined),i
CCOc1ccc(C(=O)N2c3ccccc3CC2c2nc(CCOC)no2)cc1 (centres undefined),i
COc1ccc(Cl)cc1NC(=O)Cn1nc2n(Cc3ccccc3)c(=O)c3ccccc3n2c1=O,i
C[C@@H](NS(C)(=O)=O)c1onc(-c2cccnc2)c1C(=O)O,i
COc1ccc(CCNC(=O)C23CCC=C2N(C2CCCC2)C(=O)CC3)cc1OC (centres undefined),i
Cc1c(O)cc(O)c2c(=O)c(O)c(-c3ccc(O)c(O)c3)oc12,+
COC(=O)c1ncn2c1C(=O)N(Cc1ccc(Cl)cc1)C(C)(C(=O)NC1CCCCC1)C2 (centres undefined),i
CCCn1c(=O)c2ccc(C(=O)NC3CCCC3)cc2n2c(SCC(=O)c3ccccc3)nnc12,i
O=C(CCn1ccc2cc(S(=O)(=O)N3CCCCC3)ccc21)NCc1cccs1,i
COc1ccc(CO[C@H]2COCCN(c3nc4ccccc4s3)C2)cc1,i
CCCn1c(=O)c2ccc(C(=O)NC(C)C)cc2n2c(=O)n(Cc3ccccc3F)nc12,i
O=C(O)Cn1nc(C2CCOCC2)nc1C1CNC(=O)C1 (centres undefined),i
Fc1ccc(CN(C2=NCCN2)c2c(Cl)cccc2Cl)cc1,?
CC(C)NC(=O)c1ccc2c(=O)n(Cc3ccccc3)c3nnc(SCc4ccccc4F)n3c2c1,i
CCc1cc2c(cc3n2CC(C)(C(=O)NC2CCCCC2)N(Cc2ccco2)C3=O)s1 (centres undefined),i
O=C(NCc1ccccc1)N1CCCC(Cn2cnc3cccnc32)C1 (centres undefined),i
Cc1ccccc1CCNC(=O)CNC(=O)C1(C)Cn2c(cc3ccccc32)C(=O)N1C (centres undefined),i
CCCn1c(=O)c2ccc(C(=O)NC3CCCCC3)cc2n2c(=O)n(Cc3cccc(F)c3)nc12,i
O=C(CSc1nnc2n(CCc3ccccc3)c(=O)c3ccccc3n12)Nc1ccccc1F,i
CC1CCCCC1NC(=O)C1(C)Cn2c(cc3sccc32)C(=O)N1Cc1ccc(F)cc1 (centres undefined),i
CC(C)c1nnc(C2CN(C(=O)c3ccc4ccccc4n3)CC23CCOCC3)o1 (centres undefined),i
COCC(=O)N1CC(F)(F)C[C@H]1c1nc(-c2cccnc2)no1,i
Cc1ccc(N2C(=O)c3cc4occc4n3CC2(C)C(=O)NC2CCCCCCC2)cc1 (centres undefined),i
Cn1ncc(N2CCC(CNC(=O)CCN3CCCC3=O)C2)cc1=O (centres undefined),i
COc1cc2c3c(cc4ccccc4c3c1O)NC2=O,?

# Seven records picked at random from those above:
SMILES,Methyltransferases
O=C(NCc1ccccc1)N1CCCC(Cn2cnc3cccnc32)C1 (centres undefined),i
CN(C)c1ccc(-c2nc3ncc(Cl)c(N4CCN(CC(=O)Nc5nccs5)CC4)c3[nH]2)cc1,?
O=C(Nc1ccccc1)O[C@@H]1CO[C@H]2[C@@H]1OC[C@@H]2NC(=S)Nc1ccc(F)cc1,i
CC1CCCCC1NC(=O)C1(C)Cn2c(cc3sccc32)C(=O)N1Cc1ccc(F)cc1 (centres undefined),i
COCCCN1C(=O)c2cc3occc3n2CC1(C)C(=O)NC1CCCCC1C (centres undefined),i
Cc1c(O)cc(O)c2c(=O)c(O)c(-c3ccc(O)c(O)c3)oc12,+
COc1cc2c3c(cc4ccccc4c3c1O)NC2=O,?

# Other compounds
SMILES,Methyltransferases
CC1(C(=O)NC2CCCCCC2)Cn2c(cc3sccc32)C(=O)N1Cc1ccccc1 (centres undefined),i
Cc1c(F)cccc1NC(=O)N1C[C@@H](F)C[C@H]1C(=O)N1CCOCC1,i
O=C(NCCCN1CCOCC1)c1cnn2c(-c3ccccc3)cc(-c3ccccc3)nc12,?
COc1ccccc1CNC(=O)C1(C)Cn2c(cc3ccccc32)C(=O)N1CCC1=CCCCC1 (centres undefined),i
CCOc1ccccc1NS(=O)(=O)c1ccc2[nH]c3c(c2c1)CCCC3,i
O=C1CCN(Cc2ccncc2)CCCC(C(=O)NCCCN2CCCC2=O)CCN1 (centres undefined),i
COc1ccc(-c2cn3cc(C(=O)N4CCCCC4)nc3c(=O)n2CC2CC2)cc1,i
COCC(=O)N1CC(C(=O)O)C2(CCOCC2)C1 (centres undefined),i
C=C1C(=O)O[C@H]2C1[C@H](OC(=O)/C(=C/CO)COC(=O)/C(C)=C/CO)CC(=C)[C@@H]1CC(=O)[C@@H](C)[C@@H]12 (some centres undefined),?
CCc1c2c(nc3ccc(O)cc13)-c1cc3c(c(=O)n1C2)COC(=O)[C@]3(O)CC,i
CCOCCCN1C(=O)c2ccc(-c3ccco3)n2CC1(C)C(=O)NC1CCCCC1 (centres undefined),i
CC1CCCC(NC(=O)C2(C)Cn3c(cc4sccc43)C(=O)N2CCc2ccc(Cl)cc2)C1C (centres undefined),i
CC(C)Cn1c(=O)c2ccc(Cl)cc2n2c(SCC(=O)Nc3ccccc3F)nnc12,i
O=C(c1ccccc1OCC1CCCNC1)N1CCOCC1 (centres undefined),i
C=CC1C(OC2OC(CO)C(O)C(O)C2O)OC=C(C(=O)OC)C1CC(=O)OCC1C(C)C(O)CC1C(CO)COC(=O)CC1C(C(=O)O)=COC(OC2OC(CO)C(O)C(O)C2O)/C1=C\C (centres undefined),i
CC(=O)OC/C=C(\C)C(CC1C(C)=C(OC(C)=O)C(=O)C2C(C)(C)C(O)CCC12C)OC(C)=O (centres undefined),+
Cc1ccc(CNC(=O)Cn2nc3n(C)c(=O)c4ccc(C(=O)NC5CCCCC5)cc4n3c2=O)cc1,i
Cc1cn2cc(C(=O)N(C)CCO)cc(NC3CCOc4cccc(C)c43)c2n1 (centres undefined),i
Cn1c(=O)c2ccc(C(=O)NC3CCCC3)cc2n2c(SCc3ccc(F)cc3)nnc12,i
Cc1ccc(C2c3cccn3-c3sc4c(c3CN2C(=O)Nc2ccccc2F)CCCC4)cc1 (centres undefined),i
Cc1[nH]nc(CCC(=O)N2CC[C@@H](NC(=O)c3cnccn3)[C@H](O)C2)c1C,i
COc1cccc(CN2C(=O)c3cc4sccc4n3CC2(C)C(=O)NC2CCCC2)c1 (centres undefined),i
Cc1ccc(N2C(=O)c3cc4sccc4n3CC2(C)C(=O)NC2CCCCCC2)cc1C (centres undefined),i
Cc1cnc(C2CC2)n1C1CCCN(Cc2ccccc2)C1 (centres undefined),+

# Six of these compounds, set out differently:
mol	Methyltransferases
CCCC1c2cccn2CCN1C(=O)Nc1ccccc1OCC (centres undefined)	i
COc1ccc2nc([C@H]3CCN(Cc4cccnc4)C3)[nH]c2c1	i
C[C@@H]1O[C@@H](OC[C@H]2O[C@@H](OC(CCCCc3ccc(O)cc3)CCc3ccc(O)cc3)[C@H](O)[C@@H](O)[C@@H]2O)[C@H](O)[C@H](O)[C@H]1O (some centres undefined)	i
CC[C@H]1CN(C(=O)NC(C)C)CC[C@H]1CC(=O)N1CCC(C(=O)OC)CC1	i
Cc1ccc(Cn2c(=O)c3ccccc3n3c(=O)n(CC(=O)Nc4cc(C)cc(C)c4)nc23)cc1	i
CC1CCCC2OC2C(=O)c2c(O)cc(O)cc2CC(=O)O1 (centres undefined)	i

# Additional results
SMILES,Methyltransferases
C/C=C(/C)C(=O)OC1C2OC2C2(CO2)C2C3OC(=O)C(C)C3CCC12C (centres undefined),i
Cc1cccc(C2CN(C)CCc3c2cc(O)c(O)c3Cl)c1 (centres undefined),?
COc1ccc(CCNC(=O)c2ccc3nnc(C4CC4)n3c2)cc1,i
Cc1ccc(C(=O)N2CCCC(n3c(C)cnc3C3CCOCC3)C2)s1 (centres undefined),i
CCC(C)NC(=O)c1ccc2c(=O)n(CCC(C)C)c3nn(Cc4ccc(Cl)cc4)c(=O)n3c2c1 (centres undefined),i
Cc1ccccc1CN1C(=O)c2cc3sccc3n2CC1(C)C(=O)NC1CCCC1 (centres undefined),i
Cc1ccc(NC(=O)N2CCn3cccc3C2Cc2ccccc2)c(Cl)c1 (centres undefined),i
O=C(N[C@H](c1ccccn1)C1CC(O)C1)c1ccc2c(c1)ncn2CCO (some centres undefined),i
O=C1NCCOCCCN(C(=O)CC2CCCC2)[C@H]2CCC[C@@H]12,i
Cc1cc(NC(=O)N2CCn3cccc3C2C)ccc1Br (centres undefined),i
CC(C)Cn1c(=O)c2cc(F)ccc2n2c(SCC(=O)NCc3ccccc3)nnc12,i
Cc1nc(C)n(CCNC(=O)[C@H]2CNC[C@@H](C(=O)N3CCOCC3)C2)n1,i

# Two consecutive records out of the list so far, quoted:
SMILES,Methyltransferases
O=C(N[C@H](c1ccccn1)C1CC(O)C1)c1ccc2c(c1)ncn2CCO (some centres undefined),i
O=C1NCCOCCCN(C(=O)CC2CCCC2)[C@H]2CCC[C@@H]12,i

# New compounds follow
SMILES,Methyltransferases
Cc1ccc(N2CCN(S(=O)(=O)c3cc4c(cc3C)n(C)c(=O)n4C)CC2)c(C)c1,i
CC1CCC2(C(=O)OC3OC(COC4OC(CO)C(O)C(O)C4O)C(O)C(O)C3O)CCC3(C)C(=CCC4C5(C)CCC(O)C(C)(C(=O)O)C5CCC43C)C2C1(C)O (centres undefined),i
CCCn1c(=O)c2ccc(C(=O)NCC(C)C)cc2n2c(=O)n(CC(N)=O)nc12,i
Cc1cc(F)ccc1NC(=O)CCC1CCCN(Cc2cn[nH]c2-c2cccc(F)c2)C1 (centres undefined),i
COc1ccc(OCC2CN(c3ccc(OC)cc3)C(=O)c3ccc(C)nc3O2)cc1 (centres undefined),i
Cc1cccc(C(=O)N2CCCC(c3noc(-c4cc5c(=O)[nH]c(C)cn5n4)n3)C2)c1 (centres undefined),i
CC1CC2OCC3(O)CCC(O)C(C14CC(c1ccoc1)OC4=O)C23CO (centres undefined),i
COc1ccc(-c2nc3c(c(=O)[nH]2)CCN(C(=O)c2ccccc2)C3)cc1,i
C=CC(C)(C)O[C@@H]1O[C@H](CO[C@@H]2OC[C@](O)(CO)[C@H]2O)[C@@H](O)[C@H](O)[C@H]1O,i
COc1cccc(CN2CCCC(O)(CNC3CCCCCCC3)C2=O)c1 (centres undefined),i
CCCN1C(=O)c2c(C(=O)NCc3ccc(CC)cc3)ncn2CC1(C)C(=O)NC1CCCC1 (centres undefined),i
C=CCc1ccc(O[C@@H]2O[C@H](CO)[C@@H](O)[C@H](O)[C@H]2O)c(O[C@@H]2O[C@H](CO)[C@@H](O)[C@H](O)[C@H]2O)c1,i
CC1(C(=O)NCC2CCCO2)Cn2c(cc3ccccc32)C(=O)N1Cc1cccc(Cl)c1 (centres undefined),i
CC1(C(=O)NC2CCCCC2)Cn2c(cc3ccccc32)C(=O)N1Cc1cccs1 (centres undefined),i
Cc1ccc(NC(=O)Cn2nc3n(CCc4ccccc4)c(=O)c4ccccc4n3c2=O)c(C)c1,i
CN1C[C@@H](NC(=O)CC(C)(C)CC(=O)O)C[C@H]1c1nc(-c2ccc3c(c2)OCO3)no1,i
Cc1nn(C)c(C)c1NC(=O)CC[C@H]1NC(=O)c2ccccc2NC1=O,i
Cc1cc2c(cc1S(=O)(=O)N1CCN(c3ccccc3)CC1)n(C)c(=O)n2C,i
COC(=O)[C@@H]1Cc2nc[nH]c2CN1C1CCOCC1,i
Cc1ccc(C(=O)Cn2nc3n(C)c(=O)c4ccc(C(=O)NC5CCCC5)cc4n3c2=O)cc1,i
CCC(C)(C)NC(=O)c1cccc2c1CCN2C(=O)Nc1ccc(C)cc1,i
CC1(c2noc(-c3cccnc3)n2)CCN(C(=O)CCC(=O)N2CC(=O)Nc3ccccc32)CC1,i

# This is a subset; rates above refer to the full screens.
